# Compound activity (PubChem)
# UUG fidelity – alters start codon recognition fidelity in yeast; S. cerevisiae UUG-firefly luciferase reporter, luminescence/redox ratio; activity score, % at 18.7 µM; hit rate 0.13% among 350,000; AID 602363;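 active = replicate mean at a twofold rise or more, about +100% in these data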;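 also: firefly luciferase made from a UUG start codon reports start codon fidelity; reporter light over untreated wells divided by growth signal over untreated wells; some hits fall short of that in this replicate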
# Env fusion inh – blocks HIV Env-driven cell-cell fusion | HeLa-JRFL Env/CEM21 cell fusion, luciferase | inhibition, % at 12.3 µM | hit rate 1.1% among 360,000 | AID 651610;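 active = mean replicate inhibition score of at least 50 and every replicate individually at or above 50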;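 also: 0% = plate neutral controls and 100% = maraviroc near 300 nM; one replicate is shown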
# * marks the source's active call; other numbers are inactive results; [ ] = another dose, or the depositor's remark.
Compound | UUG fidelity | Env fusion inh
CNC[C@H]1OCCCC[C@@H](C)Oc2ccc(NC(=O)Nc3ccc(C(F)(F)F)cc3)cc2C(=O)N([C@@H](C)CO)C[C@H]1C | 21 | -11[16.7 µM]
COc1ccc(NC(=O)N[C@H]2C=C[C@H](CC(=O)NC3CCC3)O[C@H]2CO)cc1 | -12 | -3[16.7 µM]
Cc1noc(C)c1NC(=O)Nc1ccc2c(c1)C(=O)N([C@@H](C)CO)C[C@H](C)[C@H](CN(C)C(=O)Nc1c(C)noc1C)O2 | 5 | -8[16.7 µM]
O=C(C[C@H]1CC[C@@H]2NC[C@@H](O)COC[C@H]2O1)Nc1nccs1 | -11 | -5[16.7 µM]
C[C@@H]1CN([C@H](C)CO)C(=O)Cc2cc(N(C)C)ccc2O[C@@H]1CN(C)CC1CC1 | -6 | 14[16.7 µM]
C[C@@H]1CCCCO[C@H](CN(C)S(=O)(=O)c2cn(C)cn2)[C@@H](C)CN([C@H](C)CO)C(=O)c2cc(NC(=O)CCCN(C)C)ccc2O1 | -18 | -21
O=C(C[C@@H]1CC[C@H](NC(=O)c2ccc(F)cc2)[C@H](CO)O1)NCCc1ccncc1 | -23 | 12[16.7 µM]
CCNC(=O)C[C@@H]1CC[C@@H]2[C@H](COc3ccc(NC(=O)c4cccc(OC)c4)cc3C(=O)N2C)O1 | 2 | -12[16.7 µM]
C[C@H](CO)N1C[C@H](C)[C@H](CN(C)Cc2ccc(Oc3ccccc3)cc2)Oc2ccc(N(C)C)cc2C1=O | -2 | 8[16.7 µM]
C[C@H](CO)N1C[C@H](C)[C@@H](CN(C)Cc2ccncc2)Oc2cc(Br)ccc2S1(=O)=O | 7 | 2[16.7 µM]

# Record cards, as listed above. Order of screens: UUG fidelity, Env fusion inh
# `O=C(C[C@H]1CC[C@@H]2NC[C@@H](O)COC[C@H]2O1)Nc1nccs1` reads -11, -5[16.7 µM]
# `C[C@@H]1CN([C@H](C)CO)C(=O)Cc2cc(N(C)C)ccc2O[C@@H]1CN(C)CC1CC1` reads -6, 14[16.7 µM]
# `Cc1noc(C)c1NC(=O)Nc1ccc2c(c1)C(=O)N([C@@H](C)CO)C[C@H](C)[C@H](CN(C)C(=O)Nc1c(C)noc1C)O2` reads 5, -8[16.7 µM]
# `CNC[C@H]1OCCCC[C@@H](C)Oc2ccc(NC(=O)Nc3ccc(C(F)(F)F)cc3)cc2C(=O)N([C@@H](C)CO)C[C@H]1C` reads 21, -11[16.7 µM]
# `CCNC(=O)C[C@@H]1CC[C@@H]2[C@H](COc3ccc(NC(=O)c4cccc(OC)c4)cc3C(=O)N2C)O1` reads 2, -12[16.7 µM]

# The results go on:
Compound | UUG fidelity | Env fusion inh
COCC#Cc1ccc2c(c1)O[C@@H](CN(C)S(C)(=O)=O)[C@@H](C)CN([C@@H](C)CO)S2(=O)=O | -2 | -7[16.7 µM]
C[C@@H]1CN([C@H](C)CO)C(=O)Cc2cc(NC(=O)Cn3cnnn3)ccc2O[C@H]1CN(C)Cc1ccc(C(=O)Nc2ccccc2N)cc1 | 12 | 15[16.7 µM]
C/C=C/c1ccc2c(c1)O[C@@H](CN(C)S(C)(=O)=O)[C@H](C)CN([C@H](C)CO)S2(=O)=O | 13 | 5[16.7 µM]
COc1ccc(NC(=O)N[C@H]2C=C[C@@H](CC(=O)NC3CCCCC3)O[C@H]2CO)cc1 | -3 | -7[16.7 µM]
CNC[C@@H]1Oc2ccc(NC(=O)CCN3CCOCC3)cc2C(=O)N([C@H](C)CO)C[C@@H]1C | 4 | -14[16.7 µM]
COc1cccc(-c2cnc3c(c2)C(=O)N([C@H](C)CO)C[C@@H](C)[C@@H](CN(C)CC2CCOCC2)O3)c1 | 0 | 12[16.7 µM]
C[C@@H]1CN([C@@H](C)CO)C(=O)c2cc(NS(=O)(=O)c3cccs3)ccc2O[C@@H](C)CCCCO[C@@H]1CN(C)S(=O)(=O)c1ccc(F)cc1 | -1 | 2[16.7 µM]
C[C@H]1CN([C@@H](C)CO)C(=O)Cc2cc(NS(=O)(=O)c3ccccc3)ccc2O[C@@H]1CN(C)S(=O)(=O)c1cccs1 | 10 | -9[16.7 µM]
CNC[C@H]1Oc2c(NS(=O)(=O)c3ccc(F)cc3)cccc2C(=O)N([C@H](C)CO)C[C@H]1C | -9 | 1[16.7 µM]
Cc1ccc(S(=O)(=O)Nc2ccc3c(c2)C(=O)N([C@H](C)CO)C[C@H](C)[C@@H](CN(C)S(=O)(=O)c2ccc(F)cc2)OCCCC[C@H](C)O3)cc1 | 3 | -22[16.7 µM]
COc1cccc(C#Cc2cnc3c(c2)C(=O)N([C@@H](C)CO)C[C@H](C)[C@@H](CN(C)C(=O)C2CCOCC2)O3)c1 | 3 | 7[16.7 µM]
C[C@H](CO)N1C[C@H](C)[C@H](CN(C)C(=O)Nc2ccc3c(c2)OCO3)Oc2ccc(NC(=O)Nc3ccccc3)cc2CC1=O | 32 | -9[16.7 µM]
CC(C)C#Cc1cnc2c(c1)C(=O)N([C@@H](C)CO)C[C@H](C)[C@@H](CN(C)C(=O)c1cccc(F)c1)O2 | 0 | -8[16.7 µM]
C[C@H](CO)N1C[C@H](C)[C@@H](CN(C)C(=O)Nc2ccccc2)OCCCC[C@H](C)Oc2ccc(NC(=O)Cc3ccccc3)cc2C1=O | 2 | -56[16.7 µM]
COC(=O)C[C@@H]1C[C@H]2c3cc(NS(=O)(=O)c4cccc(OC)c4)ccc3O[C@H]2[C@H](CO)O1 | -23 | 0[16.7 µM]
COc1ccc(C(=O)Nc2ccc3c(c2)OC[C@@H](C)NC[C@@H](C)[C@H](OC)CN(C)C3=O)cc1 | -2 | -9[16.7 µM]
CC(C)NC(=O)Nc1ccc2c(c1)CC(=O)N([C@@H](C)CO)C[C@@H](C)[C@@H](CN(C)S(C)(=O)=O)O2 | 4 | 4[16.7 µM]
C[C@@H]1CN([C@H](C)CO)C(=O)c2cc(C#CCN(C)C)cnc2O[C@H]1CN(C)C | 2 | -5[16.7 µM]
C[C@H](CO)N1C[C@H](C)[C@H](CN(C)C(=O)CN(C)C)Oc2cc(-c3cccnc3)ccc2S1(=O)=O | 4 | -9[16.7 µM]
CCCC#Cc1cnc2c(c1)C(=O)N([C@H](C)CO)C[C@@H](C)[C@@H](CN(C)C(=O)Nc1c(C)noc1C)O2 | 11 | -10[16.7 µM]
COc1ccc(C#Cc2ccc3c(c2)[C@]2(C(=O)N3)[C@H](C(=O)N3CCc4cc(OC)c(OC)cc4C3)[C@H]3C(=O)O[C@H](c4ccccc4)[C@H](c4ccccc4)N3[C@@H]2c2ccc(OCCO)cc2)cc1 | 7 | -13[16.7 µM]
CNC[C@H]1Oc2ccc(NC(=O)Cc3ccccc3)cc2C(=O)N([C@H](C)CO)C[C@@H]1C | 12 | 2[16.7 µM]
C[C@@H]1CN([C@@H](C)CO)C(=O)c2cc(NC(=O)Nc3cccc4ccccc34)ccc2O[C@H]1CN(C)Cc1ccc2c(c1)OCO2 | 16 | 7[16.7 µM]
CNC[C@@H]1Oc2ccc(NS(=O)(=O)c3c(C)noc3C)cc2C(=O)N([C@@H](C)CO)C[C@@H]1C | -9 | -7[16.7 µM]
O=C(C[C@H]1C=C[C@H](NS(=O)(=O)c2ccc(F)cc2)[C@H](CO)O1)N1CCN(c2ccccc2)CC1 | 4 | -8[16.7 µM]
CNC[C@@H]1Oc2ccc(NC(=O)C3CCCCC3)cc2C(=O)N([C@@H](C)CO)C[C@@H]1C | -3 | -7[16.7 µM]
O=C(Cc1ccncc1)N[C@H]1CC[C@H](CCn2cc(-c3ccccc3F)nn2)O[C@@H]1CO | -2 | 2[16.7 µM]
CNC(=O)C[C@@H]1CC[C@H]2[C@@H](COc3ccc(NC(=O)NCc4ccccc4)cc3C(=O)N2C)O1 | 15 | 0[16.7 µM]
C[C@@H]1CN([C@H](C)CO)C(=O)c2cccc(NS(=O)(=O)c3ccc(Cl)cc3)c2O[C@H]1CN(C)C(=O)Nc1cccc2ccccc12 | -8 | 15[16.7 µM]
Cc1noc(C)c1NC(=O)N(C)C[C@H]1OCCCC[C@H](C)Oc2ccc(NC(=O)Nc3ccc(F)cc3)cc2C(=O)N([C@H](C)CO)C[C@@H]1C | -5 | 2[16.7 µM]
CCCNC(=O)N[C@@H]1C=C[C@H](CC(=O)N2CCN(C)CC2)O[C@H]1CO | -1 | 17[16.7 µM]
CC(C)CNC(=O)[C@@H]1c2ccccc2C(=O)N(CC23CC4CC(CC(C4)C2)C3)[C@H]1c1ccc(CO)cc1 | 4 | 61*[16.7 µM]
CO[C@H]1CN(C)C(=O)c2cc(NS(=O)(=O)c3ccc(Cl)cc3)ccc2OC[C@H](C)N(C)C[C@@H]1C | -2 | -2[16.7 µM]
Cc1noc(C)c1NC(=O)Nc1cccc2c1O[C@@H](CN(C)C(=O)Nc1ccc(C(F)(F)F)cc1)[C@@H](C)CN([C@@H](C)CO)C2=O | -3 | 14[16.7 µM]
O=C(N[C@H]1CC[C@@H](CC(=O)N2CCCCC2)O[C@@H]1CO)c1ccc2c(c1)OCO2 | -5 | 3[16.7 µM]
C[C@H]1CN([C@@H](C)CO)C(=O)c2cc(NC(=O)CCCN(C)C)ccc2O[C@H]1CN(C)Cc1ccc(Cl)c(Cl)c1 | -19 | -47[16.7 µM]
C[C@@H]1CN([C@@H](C)CO)C(=O)Cc2cc(NC(=O)c3ccncc3)ccc2O[C@@H]1CN(C)Cc1ccc(C(F)(F)F)cc1 | -13 | 5[16.7 µM]
C[C@@H]1CN([C@@H](C)CO)C(=O)c2cc(C3=CCCCC3)cnc2O[C@@H]1CN(C)C(=O)Nc1ccccc1 | 11 | 6[16.7 µM]
CCO[C@@H]1OC(C(=O)N2CCCC2)=C[C@H](c2ccc(C(F)(F)F)cc2)[C@H]1CCCO | 0 | 7[16.7 µM]
O=C(Nc1ccccc1F)N[C@@H]1CC[C@@H](CCNC(=O)C2CCCC2)O[C@@H]1CO | -3 | 3[16.7 µM]
C[C@@H]1CN([C@H](C)CO)C(=O)Cc2cc(NC(=O)Nc3ccc(C(F)(F)F)cc3)ccc2O[C@@H]1CN(C)Cc1ccc(-c2ccccc2)cc1 | 3 | 6[16.7 µM]
C[C@@H]1CN([C@@H](C)CO)C(=O)c2cc(NC(=O)Nc3ccc(C(F)(F)F)cc3)ccc2O[C@H]1CN(C)C(=O)Nc1ccc(C(F)(F)F)cc1 | -12 | 8[16.7 µM]
C[C@H](CO)N1C[C@H](C)[C@@H](CN(C)Cc2ccc(C(=O)O)cc2)OCCCC[C@H](C)Oc2ccc(NS(=O)(=O)c3ccc(Cl)cc3)cc2C1=O | 1 | -7[16.7 µM]
C[C@@H]1CN([C@@H](C)CO)C(=O)c2cc(C3=CCCC3)cnc2O[C@H]1CN(C)C(=O)CN1CCOCC1 | 14 | 5[16.7 µM]
C[C@H](CO)N1C[C@H](C)[C@@H](CN(C)C)Oc2cc(-c3cccc(F)c3)ccc2S1(=O)=O | 12 | 0[16.7 µM]
CNC(=O)C[C@@H]1CC[C@@H]2[C@@H](COc3ccc(NC(=O)Nc4ccc(C)cc4)cc3C(=O)N2C)O1 | 1 | -5[16.7 µM]
COCC(=O)N[C@@H]1CC[C@@H](CC(=O)NCc2ccccc2OC)O[C@@H]1CO | -21 | -44[16.7 µM]
C[C@@H]1CCCCO[C@@H](CN(C)S(=O)(=O)c2ccc(F)cc2)[C@H](C)CN([C@H](C)CO)C(=O)c2cc(NC(=O)NC3CCCCC3)ccc2O1 | -1 | 9[16.7 µM]
C[C@H]1CN([C@@H](C)CO)S(=O)(=O)c2ccc(-c3cccc(C#N)c3)cc2O[C@@H]1CN(C)C(=O)c1ccc(F)cc1 | -8 | -5[16.7 µM]
Cc1cc(C(=O)Nc2cccc3c2O[C@@H](CN(C)C(=O)Nc2ccc(C(F)(F)F)cc2)[C@H](C)CN([C@H](C)CO)C3=O)n(C)n1 | 14 | 8[16.7 µM]

# (continued)
Compound | UUG fidelity | Env fusion inh
C[C@@H]1CCCCO[C@@H](CN(C)C(=O)Nc2cccc3ccccc23)[C@H](C)CN([C@@H](C)CO)C(=O)c2cc(NC(=O)C3CCCCC3)ccc2O1 | 14 | -12[16.7 µM]
C[C@@H]1CN([C@H](C)CO)C(=O)c2cccc(NS(=O)(=O)c3cn(C)cn3)c2O[C@@H]1CN(C)Cc1ccc2c(c1)OCO2 | -7 | -4[16.7 µM]
C[C@H]1CN([C@@H](C)CO)C(=O)c2cc(-c3cccnc3)cnc2O[C@H]1CN(C)C(=O)Nc1ccc2c(c1)OCO2 | -10 | -4[16.7 µM]
COc1cccc(S(=O)(=O)N[C@H]2C=C[C@@H](CC(=O)NCc3ccc(F)cc3)O[C@H]2CO)c1 | -2 | 0[16.7 µM]
COc1ccc(CN(C)C[C@H]2OCCCC[C@@H](C)Oc3ccc(NC(=O)CCC(F)(F)F)cc3C(=O)N([C@@H](C)CO)C[C@H]2C)cc1 | -1 | -12[16.7 µM]
O=C(C[C@@H]1CC[C@@H](NC(=O)CCN2CCCCC2)[C@H](CO)O1)NCc1ccc(Cl)c(Cl)c1 | -11 | -10[16.7 µM]
C[C@H](O)C#Cc1ccc2c(c1)O[C@H](CN(C)C(=O)c1ccccc1)[C@@H](C)CN([C@H](C)CO)S2(=O)=O | -2 | -13[16.7 µM]
CNC[C@H]1OCCCC[C@@H](C)Oc2ccc(NS(=O)(=O)c3c(C)noc3C)cc2C(=O)N([C@H](C)CO)C[C@@H]1C | 2 | -5[16.7 µM]
COCC(=O)Nc1ccc2c(c1)C(=O)N(C)C[C@@H](OC)[C@@H](C)CN(C(=O)COC)[C@@H](C)CO2 | -4 | 6[16.7 µM]
CN(C)CC(=O)N[C@@H]1CC[C@H](CCn2cc(C3CCCC3)nn2)O[C@@H]1CO | 1 | 7[16.7 µM]
C[C@@H]1CCCCO[C@H](CN(C)C(=O)NC2CCCCC2)[C@H](C)CN([C@@H](C)CO)C(=O)c2cc(NS(=O)(=O)c3ccc(Cl)cc3)ccc2O1 | 2 | -23[16.7 µM]

# These rows are one share of the data. The share of hits here may be higher or lower than overall.
